Rango-impB inh – inhibitors of Rango-importin beta complex formation; Q14974; Rango CFP/YFP FRET sensor + importin beta, 45 min; Potency, µM (highest dose often 92.2 µM), inactives show top-dose inhibition of complex formation; actives 0.031% (n = 340,000); active = rising FRET ratio curve, often small or poorly fitted; inconclusive = mostly compound fluorescence or quenching in the first reads; inactive = flat curves in all reads;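 further: potency means the concentration at half of the fitted maximal effect; 0% = DMSO wells and 100% = buffer wells lacking importin beta; nearly all actives have a fitted effect of over 15% in size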
Target sequence (Q14974 whole entry, looked up): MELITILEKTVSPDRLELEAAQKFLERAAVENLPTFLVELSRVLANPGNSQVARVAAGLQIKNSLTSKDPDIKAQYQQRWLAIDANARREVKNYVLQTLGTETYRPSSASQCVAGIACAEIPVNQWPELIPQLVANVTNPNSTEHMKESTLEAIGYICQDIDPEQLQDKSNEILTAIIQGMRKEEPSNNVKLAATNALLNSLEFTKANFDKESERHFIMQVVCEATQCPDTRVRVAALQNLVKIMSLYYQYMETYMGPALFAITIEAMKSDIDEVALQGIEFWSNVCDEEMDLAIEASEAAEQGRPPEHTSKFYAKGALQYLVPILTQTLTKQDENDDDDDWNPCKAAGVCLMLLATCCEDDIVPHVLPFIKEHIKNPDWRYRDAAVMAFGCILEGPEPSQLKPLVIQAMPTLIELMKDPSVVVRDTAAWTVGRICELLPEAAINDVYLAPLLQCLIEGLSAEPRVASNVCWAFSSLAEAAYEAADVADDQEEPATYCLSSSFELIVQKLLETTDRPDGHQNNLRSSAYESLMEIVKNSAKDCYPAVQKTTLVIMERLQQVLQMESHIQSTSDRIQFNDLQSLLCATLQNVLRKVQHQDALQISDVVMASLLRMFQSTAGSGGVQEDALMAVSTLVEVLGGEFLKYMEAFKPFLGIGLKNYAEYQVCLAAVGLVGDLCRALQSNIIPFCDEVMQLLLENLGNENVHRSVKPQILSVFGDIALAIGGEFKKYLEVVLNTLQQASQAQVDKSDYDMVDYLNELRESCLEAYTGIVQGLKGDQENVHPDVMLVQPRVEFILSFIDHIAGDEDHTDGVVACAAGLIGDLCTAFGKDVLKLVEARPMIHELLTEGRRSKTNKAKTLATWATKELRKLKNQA
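FRET biosensor Rango (snurportin 1 IBB between N-terminal EYFP and C-terminal Cerulean), 50 nM in PBS/1 mM DTT/0.02% Tween-20/0.1% BSA, preincubated 5 min RT with compound; 0.125 microM importin beta added, 45 min RT, CFP/YFP FRET ratio read.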
GLA inh pH 4.5 – alpha-galactosidase A (human) inhibition, pH 4.5. P06280. purified enzyme, 4-MU-alpha-Gal fluorescence, pH 4.5. activity change, negative = inhibition, % at 105 µM. 230,000 tested, under 10 active. AID 1467; inconclusive = small, poorly fitted or top-dose-only inhibition, or a rising curve; inactive = flat fitted curve, though single readings scatter; no compound was filed as active;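 further: 0% = full activity with enzyme and -100% = basal without enzyme; dose as in the result columns while the protocol names 77 µM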
miR-21 reporter – miR-21 reporter, rising signal; HeLa miR-21 FLuc reporter, luciferase, 48 h; Potency, µM (doses to about 38.3 µM), for the others: top-dose reporter change, positive = more light; 340,000 tested, under 10 active; AID 2288; active = well fitted rising curve with a large enough effect; inconclusive = small, poorly fitted or top-dose-only effect; inactive = no such curve, though single readings can be large or run the other way;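 further: % of control where 0% means no effect; miR-21 action dims this reporter so a rising signal means less miR-21 action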
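Luminescence from a firefly luciferase reporter carrying a miR-21 binding site downstream, stably expressed under a CMV promoter in HeLa cells that make miR-21 endogenously, reports miRNA modulation after 48 h compound exposure up to approximately 40uM final.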
Rango dissoc inh – inhibition of RanGTP-driven Rango-importin beta dissociation; actives 0.071% (n = 340,000); Potency, µM (series often up to 46.1 µM), inactives show at the highest dose activity change, negative = inhibition; O95149+P62826; AID 540253; Biochemical FRET Rango-importin beta, RanGTP-induced dissociation; active means falling FRET ratio curve, often poorly fitted, with flat reads before Ran was added; inconclusive means other falling curves, or compound fluorescence or quenching; inactive means flat or rising ratio curve;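 further: potency means the concentration at half of the fitted maximal effect; % of control where 0% means no effect; nearly all actives have a fitted effect of over 45% in size; -100% = wells without RanGTP and RCC1; the record marks most hits as doubtful in a second field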
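Recombinant Rango FRET biosensor (EYFP–snurportin 1 IBB–cerulean CFP10) at 0.1 uM premixed with 0.25 uM importin beta in PBS, 1 mM DTT, 0.02% Tween-20, 0.1% BSA. Compound added 5 min; RanGTP-RCC1 (0.6 uM Ran, 2 mM GTP, 0.2 uM RCC1) then triggers release, read at 45 min.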
* = called active by the depositor; ? = inconclusive; / = no result given; & = joins results of further samples; [ ] = dose if it differs, or a comment. This is a subset, so the mix of outcomes need not match the whole.

Second line of a record – Rango-impB inh	GLA inh pH 4.5	miR-21 reporter	Rango dissoc inh
CCCCn1nc(C(=O)O)ccc1=O
→ -2.0%	-0.2	1.0%	-14.0%
CCc1nnc2sc(-c3ccc(NC(=O)c4ccc5c(c4)OCCO5)cc3)nn12
→ 3.5%	-0.8	-5.4%	-8.1%
O=C(Nc1nc2ccccc2s1)c1c(F)cccc1Cl
→ 0.5%	/	-30.6%	-7.7%
Cn1cnnc1SCc1ccc(C(=O)N/N=C(\CCC(=O)O)c2ccc(C(C)(C)C)cc2)cc1
→ 3.9%	0.9	-13.9%	-8.1%
O=C(Nc1nccs1)C1CC=CCC1 (centres undefined)
→ -1.5%	/	0.1%	2.5%
Cc1ccc(SCc2cn3ccccc3n2)cc1
→ -0.2%	2.6	-31.6%	-3.9%
O=C(Nc1cccc(Cl)c1)NC1CCS(=O)(=O)C1 (centres undefined)
→ -2.6%	/	-2.7%	-18.4%
C=CCN1C(=O)C2(OCCCO2)c2cc(C)ccc21
→ 2.9%	/	1.7%	-19.9%
Cc1ccc(CNC(=O)Cn2ncn3cccc3c2=O)cc1
→ ?	/	-18.8%	7.8%
CCCCC(CCC(=O)O)(C(=O)OCC)c1csc(Nc2ccc(C)cc2)n1 (centres undefined)
→ -0.5%	-6.7	-16.1%	2.3%
CCn1c(SCC(=O)Nc2ccccc2Cl)nnc1C1CC1
→ 0.9%	/	0.2%	-6.0%
Cc1ccc(S(=O)(=O)n2nccc2-c2c(-c3ccc(Cl)cc3)noc2C)cc1
→ -0.6%	-6.9	-2.8%	-12.1%
COc1ccc(S(=O)(=O)N2CCCC2CNC(=O)C(=O)Nc2ccc(C)cc2)cc1 (centres undefined)
→ -4.1%	/	/	8.6%
O=C(Nc1ccccc1)c1ccccc1CSc1ccccc1
→ 0.6%	/	/	-7.8%
O=C(NCc1cccnc1)/C(=C\c1ccc(-c2ccc(Cl)c(Cl)c2)o1)S(=O)(=O)c1ccccc1
→ ?	5.1	?	0.6%
O=c1c2ccccc2[nH]c(=S)n1Cc1cccs1
→ 1.7%	-2.3	-18.3%	9.3%
C=CCN(C(C(=O)OC)C(C)C)S(=O)(=O)CCNCc1ccccc1 (centres undefined)
→ -1.7%	/	/	-1.8%
COc1ccc(CNCc2ccc([N+](=O)[O-])cc2)cc1OC
→ 6.4%	/	-1.1%	7.0%
COc1ccc(S(=O)(=O)N2CCN(C)CC2)cc1NC(=O)c1ccccc1F
→ 1.2%	/	8.1%	0.0%
O=C(O)c1ccc2c(=O)n3c(nc2c1)/C(=C/c1cccc(O)c1)CC3
→ 1.0%	/	0.0%	20.5%
CCCS(=O)(=O)N1CCN(C(=O)c2cccs2)CC1
→ 0.1%	-0.3	-1.8%	-16.1%
O=C(c1ccc(F)cc1)N1CCN(C2CCCCC2)CC1
→ -4.2%	/	-1.1%	-6.4%
CCn1cnc2c(Nc3cc(F)cc(F)c3)nc(C#N)nc21
→ 0.5%	/	/	-13.7%
C(=C\c1ccccc1)/C=N/N1CCN(Cc2ccccc2)CC1
→ -0.8%	4.2	-30.2%	3.2%
O=C(COc1ccc(/C=N/NC(=O)CSCc2ccc([N+](=O)[O-])cc2)cc1)NCc1ccco1
→ -0.7%	1.5	24.7%	10.7%
COc1cc(C(=O)Nc2ccc3nc4n(c(=O)c3c2)CCCCC4)cc(OC)c1OC
→ 5.8%	/	-7.0%&-8.3%	20.7%
CCN(C(=O)CSc1ncn[nH]1)C1CCCCC1
→ -5.9%	7.2	1.8%	18.0%
COC(=O)[C@@]1(Cc2ccc(F)cc2)[C@H]2c3cc(C(=O)N4CCCC4)n(CCO)c3C[C@H]2CN1C(=O)c1ccccc1
→ 1.6%	-18.5&2.5	-3.0%	12.1%
O=C(CCCc1nc(-c2ccccc2Cl)no1)NC1CCCCC1
→ 10.6%	5.9	3.0%	15.4%
CCOC(=O)C1CC(=O)c2ccccc2C1c1ccccc1 (centres undefined)
→ 1.0%	/	/	-5.0%
O=C(Cn1nnc(-c2cccc(C(F)(F)F)c2)n1)N1CCOCC1
→ -0.1%	12.3	-8.9%	6.0%
COc1ccc(CNC(=O)CN(C(=O)c2csnn2)c2ccc3c(c2)OCCO3)cc1
→ 2.5%	/	-19.2%	2.9%
COc1ccc(S(=O)(=O)N(CC(=O)O)c2ccccc2)cc1
→ 6.5%	-0.2	-3.2%	1.1%
CC(=O)c1sc2c(c1OC(=O)c1ccc(Cl)cc1Cl)c(=O)n(-c1ccccc1)c(=S)n2-c1ccccc1
→ 0.0%	-6.9	-7.6%	-0.4%
O=C1c2ccccc2C(=O)N1c1cccc2ccccc12
→ -1.2%	/	-0.7%	-18.1%
Cc1nc(SCC(=O)c2ccc(F)cc2)n[nH]1
→ 3.1%	2.3	-11.9%	-8.8%
Cc1ccc(C)c(NC(=O)Cn2nc(C)c3ccccc3c2=O)c1
→ -5.7%	2.9	-2.9%	-9.6%
COc1ccc(N=C2S/C(=C\c3cccs3)C(=O)N2CC(C)C)cc1
→ -0.1%	7.8	-1.8%	-12.3%
O=C(O)/C=C\c1cc2c(cc1[N+](=O)[O-])OCO2
→ 2.1%	-0.8	-4.0%	3.4%
Cc1ccc(-c2csc(N3C(=N)SCC3=O)n2)cc1
→ -4.2%	4.4	-40.8%	0.0%
COC(=O)C1=C(C)NC2=C(C(=O)CC(C)(C)C2)C1c1cnn(C)c1C (centres undefined)
→ ?	-0.2	-11.2%	1.8%
C=CCC[C@@H](Cc1ccc(F)cc1)C(=O)OC[C@@H]1CCCN1C(=O)[C@@H](CC=C)CC(=O)N(CCO)Cc1ccccc1
→ -0.7%	/	/	-7.5%
COC(=O)CN1C(=O)C(C)(C)Oc2ccc(C(=O)Nc3ccccc3F)cc21
→ -0.9%	/	-13.9%	1.0%
COc1ccccc1NC(=S)N1CCCCCC1
→ -3.1%	/	-5.7%	-12.0%
CCCOc1cccc(C2/C(=C(/O)c3ccc(OC)cc3)C(=O)C(=O)N2CCN(C)C)c1 (centres undefined)
→ ?	-5.3	-13.7%	14.0%
COc1ccc2c(c1)OC[C@H]1[C@H]2N2C(=O)CN(CC3CCCO3)C(=O)[C@@]2(C)[C@H]1c1ccccc1 (some centres undefined)
→ 1.7%	/	/	3.6%
COc1ccc(CC(=O)Nc2ccc(S(=O)(=O)N3CCCCC3)cc2)cc1OC
→ -1.2%	/	6.1%	-5.0%
Cc1nc(-c2ccccc2)sc1C1(C)CC(c2cccc(F)c2)=NO1 (centres undefined)
→ 3.1%	/	/	0.2%
Cc1ccc(S(=O)(=O)NCC(=O)N2CCCCC2)cc1
→ -2.7%	3.1	-5.6%	-4.8%
Cc1[nH]n(-c2ccccc2)c(=O)c1C(c1cccc([N+](=O)[O-])c1)c1c(C)[nH]n(-c2ccccc2)c1=O
→ 3.1%	-6.2	2.2%	3.1%
COc1ccccc1C(CNC(=O)c1ccc(NS(=O)(=O)c2ccc(F)c(C)c2)cc1)N(C)C (centres undefined)
→ -5.5%	/	-9.8%	22.7%
O=C(O)CNC(=O)CC12CC3CC(CC(C3)C1)C2
→ 0.0%	-1.2	-0.5%	-1.5%
NNC(=O)Cc1csc(-c2ccccc2)n1
→ 2.8%	-4.6	-0.5%	-20.6%
CC(=O)c1c(OC(=O)c2ccco2)c2ccccc2n1C
→ -7.7%	-0.8	-7.3%	?
Cc1cccc(C)c1OCC(=O)NCc1nnc(SCC(=O)NC2CCCCC2)n1C
→ -1.3%	0.2	-3.3%	2.6%
CC1CC(C)CN(C(=O)COC(=O)c2ccc([N+](=O)[O-])o2)C1 (centres undefined)
→ 1.0%	/	/	-5.2%
Cc1ccn2c(NCc3ccc4c(c3)OCO4)c(-c3ccc(O)cc3)nc2c1
→ -0.3%	0.2	-1.7%	12.3%
CCc1ccc(C(=O)CN(C#N)c2nc(C)cc(C)n2)cc1
→ 2.8%	-1.0	29.6%	-10.1%
COc1ccc(CCCCCCOCc2ccccc2)cc1
→ -0.2%	/	/	-2.6%
CC(C)C(=O)Nc1c2c(nc3ccccc13)N(C)CC2
→ 3.4%	?	0.4%	0.3%

Next section:
Second line of a record – Rango-impB inh	GLA inh pH 4.5	miR-21 reporter	Rango dissoc inh
CCOC(=O)c1ccc(COC(=O)c2ccc(-c3nnc(-c4ccccc4)o3)cc2)o1
→ -0.8%	/	/	-18.5%
CCC(C)Sc1cccc(-c2nc3ccc(Cl)cn3c2NCc2ccccc2)c1 (centres undefined)
→ ?	/	/	?
O=C(Nc1cnn(Cc2ccc(F)cc2)c1)c1cc2nc(-c3ccco3)cc(C(F)(F)F)n2n1
→ 3.4%	2.3	-6.4%	-8.9%
S=C(NC1CCCCC1)N1CCCCC1
→ 1.4%	-7.4	-6.6%	4.1%
Cc1ccc2cc(C#N)c(SCC(=O)N3CCCc4ccccc43)nc2c1C
→ -2.5%	4.2	-0.8%	0.1%
Cc1ccc(NC(=O)N(Cc2ccco2)Cc2cc3cc(C)cc(C)c3nc2Cl)cc1
→ /	-25.1	-13.3%	/
CCOC(=O)C1=C(O)/C(=C/c2cc(OC)c(OC)c(OC)c2)SC1=Nc1ccc(OC)cc1
→ -0.9%	/	-10.4%	12.4%
CC#CCN(Cc1ccco1)C(=O)C1CCC(=O)N(Cc2ccccc2F)C1 (centres undefined)
→ 0.5%	/	-22.6%	16.6%
COc1ccc(C2c3c(C)nn(-c4ccccc4)c3NC(=O)N2c2ccccc2)cc1 (centres undefined)
→ -0.2%	-2.5	-9.2%	8.3%
OC(COC(c1ccccc1)c1ccccc1)CN1CCOCC1 (centres undefined)
→ 0.1%	1.3	-3.9%	0.9%
N/C(=N\OC(=O)/C=C/c1ccccc1)c1ccncc1
→ 0.0%	4.4	-52.9%	1.1%
NC1=NC(=Nc2cccc(S(=O)(=O)N3CCOCC3)c2)c2ccccc21
→ 1.9%	-1.9	-0.4%	2.0%
COc1ccc(CCNS(=O)(=O)c2cnc(Cl)c(Br)c2)cc1OC
→ -4.4%	11.1	0.6%	-9.4%
CCN1CCN(S(=O)(=O)c2ccc(Cl)c(C(=O)NCc3ccco3)c2)CC1
→ ?	/	/	-2.3%
CN(/C=C1/C(=O)CNC1=O)CCO
→ 0.4%	3.3[21.1 µM]	-11.4%	38.7%
CCCCOC(=O)c1ccc(NC(=O)C(=O)NCc2ccco2)cc1
→ -0.1%	-0.6	-0.1%	6.4%
O=C(O)c1ccc(/C=C2\SC(=S)N(NC(=O)c3ccccc3[N+](=O)[O-])C2=O)cc1
→ 0.3%	/	1.1%	2.2%
CCCP(=O)(CC(=O)O)c1ccccc1 (centres undefined)
→ 7.3%	3.6	-0.2%	3.4%
Cc1cc(N2CCCCC2)nc(-c2ccc(Br)cc2)n1
→ 0.5%	-2.7	-9.7%	0.8%
C=CCn1c(COc2cccc3cccnc23)nnc1SCC(=O)OC
→ -5.3%	-3.2	-0.9%	18.1%
O=[N+]([O-])c1ccc(Cl)c(/C=N/N2CCN(Cc3ccccc3)CC2)c1
→ -0.3%	11.4	-5.5%	-3.7%
N#Cc1c(NCc2ccccc2)ccnc1NCc1cccnc1
→ -4.1%	4.9	21.0%	-2.3%
O=C(Cn1c(CC(=O)N2CCOCC2)nc2ccccc21)Nc1ccc2c(c1)OC(F)(F)O2
→ 0.0%	0.2	-0.3%	0.6%

As a working copy, some entries already given.
Second line of a record – Rango-impB inh	GLA inh pH 4.5	miR-21 reporter	Rango dissoc inh
O=C(O)c1ccc2c(=O)n3c(nc2c1)/C(=C/c1cccc(O)c1)CC3
→ 1.0%	/	0.0%	20.5%
CCCS(=O)(=O)N1CCN(C(=O)c2cccs2)CC1
→ 0.1%	-0.3	-1.8%	-16.1%

Screening data (PubChem BioAssay)
